Assay outcomes (PubChem BioAssay)
eIF4H inh: inhibitors of RNA binding by human eIF4H. eIF4H fluorescence polarization binding assay. inhibition, % at 35 µM. 290,000 tested, 0.94% active. AID 2012;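 active = 50% or more with normal probe brightness, or confirmed in later tests; about a fifth of its hits are not listed in these tables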;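 note: calls also rest on retests at 20 µM and on dose response follow-up; 0% = protein and probe with vehicle and 100% = probe without protein; strong numbers were not always called active; many hits fall short of the cut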
PABP polyA inh: PABP-poly(A) binding inhibition. inhibition, % at 35 µM. PABP-poly(A) RNA binding, fluorescence polarization. 290,000 tested, 1% active. P11940;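 active = 50% or more with normal probe brightness, or confirmed in later tests; about a fifth of its hits are not listed in these tables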;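 note: calls also rest on retests at 20 µM and on dose response follow-up; controls were probe without protein and protein plus probe with vehicle; some compounds called inactive have numbers as strong as hits; many hits fall short of the cut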
CSC inhib: blocks cancer stem cells. cancer stem cell-like cells viability, luminescence. inhibition, % at 7.5 µM. 300,000 tested, 1.1% active;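 active = mean at 75% or more and at least half the replicates too; tested in HMLE shEcad cells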;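 note: 0% = median of negative and 100% = median of positive control wells; the first replicate is given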
Env fusion inh: HIV envelope-mediated fusion inhibition; inhibition, % at 12.3 µM; 360,000 tested, 1.1% active; HeLa-JRFL Env/CEM21 cell fusion, luciferase;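 active = mean replicate inhibition score of at least 50 and every replicate individually at or above 50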;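 note: 0% = plate neutral controls and 100% = maraviroc near 300 nM; one replicate is shown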
UUG fidelity: alters start codon recognition fidelity in yeast; S. cerevisiae UUG-firefly luciferase reporter, luminescence/redox ratio; activity score, % at 18.7 µM; 350,000 tested, 0.13% active; AID 602363;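 active = replicate mean at a twofold rise or more, about +100% in these data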;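 note: firefly luciferase made from a UUG start codon reports start codon fidelity; reporter light over untreated wells divided by growth signal over untreated wells; some hits fall short of that in this replicate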
MT1-MMP act inh: inhibitors of human MT1-MMP activation; P50281; HT1080 RFP-PRO-GFP cells, GFP/RFP ratio fluorescence, overnight; percent of plate control window, DMSO zero; GFP/RFP ratio change, % at 20 µM; 360,000 tested, 0.061% active; AID 651647;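 active = GFP/RFP ratio change of at least 30% with cell ATP level not reduced by more than half and red fluorescence within 50% of control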; note: strong numbers were not always called active
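Assay system: HT1080 cells carrying an RFP-PRO-GFP reporter | Dosing: Single dose of 20 µM compound, 1% DMSO final | Incubation: Cells overnight before dosing, compound overnight, 37 °C, 5% CO2 | Evaluation: GFP/RFP fluorescence ratio | Control set: DMSO and RFP-L50D-GFP cell wells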
Rce1 inhib: blocks yeast Ras-converting enzyme; Q03530; yeast membranes, quenched prenylated peptide cleavage fluorescence; calls only; 290,000 tested, 0.27% active; AID 2563;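 active = fall in fluorescence gain of 50% or more versus controls, with final raw signal at or below 3038400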;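 note: plate controls were neutral control wells for no effect and wells lacking membranes for full effect; tested at 10 µM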
Target sequence (Q03530 whole entry, looked up): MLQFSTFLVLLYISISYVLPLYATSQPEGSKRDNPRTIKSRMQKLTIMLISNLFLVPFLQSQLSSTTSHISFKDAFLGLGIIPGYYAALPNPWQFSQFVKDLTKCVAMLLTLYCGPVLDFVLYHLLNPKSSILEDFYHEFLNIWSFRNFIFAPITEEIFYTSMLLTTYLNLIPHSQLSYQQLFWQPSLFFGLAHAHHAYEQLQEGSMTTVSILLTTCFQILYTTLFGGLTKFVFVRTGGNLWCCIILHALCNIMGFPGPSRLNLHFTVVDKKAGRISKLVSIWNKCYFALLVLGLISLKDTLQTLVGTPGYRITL
MT1-MMP act inh RFP: recorded beside MT1-MMP act inh, whose call it bears; RFP signal change, %; measured here: RFP expression control read;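 0 = vehicle wells; hits needed this value within 50% of zero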
Numbers without * were called inactive; i = inactive; . = no result given; + = active, no number.

SMILES	eIF4H inh	PABP polyA inh	CSC inhib	Env fusion inh	UUG fidelity	MT1-MMP act inh	MT1-MMP act inh RFP	Rce1 inhib
COc1ccc(CCCNC(=O)C2CCC(=O)N(Cc3ccccc3F)C2)cc1 (stereo not given)	-4	5	-1	-4	-3	7	0	i
COc1cc(Cl)ccc1OC1(C)CCN(Cc2ccc3ccccc3c2)C1 (stereo not given)	.	.	.	15	-2	4	8	.
Cc1ccc(C(=O)NNC(=O)c2ccc(-n3cncn3)c([N+](=O)[O-])c2)cc1	.	.	-10	4	.	-2	1	i
COc1ccc(C(=O)/C=C/C(=O)N(Cc2ccc(F)cc2)C(C(=O)NC2CCCCC2)c2ccncc2)c(O)c1 (stereo not given)	1	10	.	.	-18	-9	-12	i
CN1C(=O)N(CC(=O)N2CCN(S(=O)(=O)c3ccc4c(c3)CCC4)CC2)C(=O)C12CCCCC2	.	.	.	-8	8	2	-1	.
Cc1ccccc1-c1csc(C(O)c2cccnc2)n1 (stereo not given)	.	.	.	9	-14	0	-2	.
Cc1ccc(COc2ccc(Br)cc2/C=N/O)cc1	3	5	78*	.	2	-4	-9	i
COc1ccc(NC(=O)COC(=O)C2CC(=O)N(c3ccc(OC(C)C)cc3)C2)cc1 (stereo not given)	2	-7	-5	5	-10	3	6	i
Cc1c(C(=O)Nc2nc3ccccc3[nH]2)cccc1[N+](=O)[O-]	-6	-3	-3	7	.	2	1	i
Cc1ccc(OCC(=O)Oc2c(C)cccc2C)cc1C	-6	-3	-14	-7	4	1	2	i
Cc1ccc(NC(=O)c2nc[nH]c2C(=O)NCCCCCNC(=O)OC(C)(C)C)cc1	.	.	26	12	-18	-2	-12	.
CCCCCc1nnc(NS(C)(=O)=O)s1	-4	11	14	14	.	-3	1	i
COc1cccc(/C=C(/C#N)c2ccc(Cl)cc2)c1OCc1cccc(C(=O)O)c1	-4	-4	-6	-3	.	0	1	i
Cc1cc(C2(c3cc(C)c(NC(=O)CN4CCOCC4)c(C)c3)CCCCC2)cc(C)c1NC(=O)CN1CCOCC1	-4	-6	.	.	.	.	.	i
COc1ccc(CCN(C(=O)c2snc(C(N)=O)c2N)C(C)C(=O)NC2CCCCC2)cc1OC (stereo not given)	9	2	.	-3	15	3	0	i
Cc1ccc(CN2CC(C(=O)NCCCSc3ccccc3)CC2=O)cc1 (stereo not given)	-9	-14	2	i	-8	1	-1	i
CC(OC(=O)c1ccc(Cl)c(S(=O)(=O)Nc2ccc(F)cc2)c1)C(=O)NC(N)=O (stereo not given)	6	3	-6	-6	-1	0	3	i
CC(OC(=O)COc1ccccc1[N+](=O)[O-])C(=O)Nc1ccc(N2CCOCC2)cc1 (stereo not given)	-6	-7	-13	10	.	-4	-2	i
O=C(c1cc(F)ccc1F)C1CCCN(C(=O)c2cccs2)C1 (stereo not given)	-12	1	7	24	.	-8	-2	i
CCn1cc(C(=O)NCc2ccccc2Cl)cn1	6	-6	-9	0	.	7	3	i
COc1ccc(OC(C)C(=O)N2CCCc3ccccc32)cc1 (stereo not given)	4	-8	-15	7	1	-4	-1	i
COc1ccc(CSc2nc(C)cc(=O)[nH]2)cc1Br	-1	-5	-10	.	.	5	2	i
c1n[nH]c(NC2=NCCC2)n1	-8	3	-7	-8	-15	1	5	.
O=C1CN(C(=O)c2ccccc2C(=O)O)c2ccccc2N1	-11	6	-9	-1	-7	-9	4	i
CCc1cc(=O)oc2c(C)c(OCC(=O)N3CCC[C@@H]3C(=O)O)ccc12	-4	-2	-9	.	-9	4	5	i
O=C(NCCNC(=O)c1cc(Cl)ccc1Cl)c1ccccn1	-5	10	4	6	-11	1	2	i
NC(=O)C1CCN(C(c2ccccc2Cl)c2nnnn2CC2CCCO2)CC1 (stereo not given)	-9	23	-4	.	-10	-1	1	i
O=c1ccn([C@@H]2O[C@H](CNS(=O)(=O)c3cc4ccccc4s3)[C@@H](O)[C@H]2O)c(=O)[nH]1	.	.	.	46	-14	1	4	.
O=C(CNC(=O)N1CC(=O)Nc2ccccc21)NCCc1cccc(F)c1	2	1	7	7	-19	-2	1	i
CCN(C(=O)c1ccc(Cl)cc1[N+](=O)[O-])c1ccccc1C	-4	10	11	-4	.	-3	-2	i
CCCN1CCN(C(=O)c2ccc(CS(=O)c3ccc(Cl)cc3)o2)CC1 (stereo not given)	-8	7	0	5	-8	-2	-1	i
COC(=O)CSc1nc(SCc2ccccc2Cl)nc2c1CCCC2	-1	19	11	.	-17	1	4	i
COc1cccc(NC(=O)N2CCN(c3nnnn3-c3ccccc3)CC2)c1	9	12	-7	23	12	-2	1	i
COc1ccc(C(=O)CSc2nc3ccc([N+](=O)[O-])cc3[nH]2)cc1	-8	-3	14	-42	-6	0	-1	i
COC(=O)c1cc(NC(=O)CC2NCCNC2=O)cc(C(=O)OC)c1 (stereo not given)	0	-6	-2	.	-2	2	4	i
COc1cc(CCCN2C(=O)C(=O)NC[C@@H]2CCCCN)cc(OC)c1OC	3	-6	-10	1	-22	3	3	i
Cc1cc(Nc2nc3ccccc3nc2Cl)n(-c2ccccc2C)n1	-2	7	4	.	0	-8	-11	i
COc1cc(C(=O)N2CCN(S(=O)(=O)c3cccc(F)c3)CC2)ccc1OCC(=O)N1CCOCC1	.	.	15	6	-11	0	1	i
c1ccc(CNc2c3c(nc4ncnn24)CCC3)cc1	-5	-2	-9	-26	2	-2	-5	i
Cc1ccc(CSc2nc3ccccc3c(=O)n2Cc2ccco2)cc1	-8	20	-18	18	-21	-2	-8	i
CN(C)C(CNC(=S)Nc1ccccc1)c1cccnc1 (stereo not given)	1	-8	-11	-5	.	4	6	i
Cc1ccc(CN(c2ccc(C(=O)NCc3cccnc3)cc2)S(C)(=O)=O)cc1	9	2	6	3	-22	-3	-6	i
Cc1ccc(OCCOc2ccc(Br)cc2)c([N+](=O)[O-])n1	-2	0	14	-31	-15	3	-8	i
CC(C)CNC(=O)CO/N=C/c1ccccc1Cl	11	2	8	5	.	-2	4	i
C=CCSc1nc(=O)n2ccc(C)cc2n1	29	0	-2	6	-10	0	8	i
CC(C)(C)NC(=O)C(c1ccccc1)N(Cc1cccs1)C(=O)c1csnn1 (stereo not given)	0	-8	-12	72*	-5	-1	-2	i
O=C1CC(c2ccccc2Cl)Cc2c1cnn2-c1nc2ccccc2s1 (stereo not given)	-6	-5	.	-32	.	.	.	i
O=C(NCc1ccccc1Cl)c1csc([C@H]2C[C@H](O)[C@@H](CO)O2)n1	.	.	.	4	2	-2	0	.
O=C(NCC1CCCO1)C1CCN(c2ccc(S(=O)(=O)N3CCCC3)cc2)CC1 (stereo not given)	4	-5	.	.	-10	0	-3	i
O=C(N/N=C/c1cccc(C(F)(F)F)c1)c1ccc(O)cc1	-4	-8	14	-13	.	-2	-4	.

(cont.)
SMILES	eIF4H inh	PABP polyA inh	CSC inhib	Env fusion inh	UUG fidelity	MT1-MMP act inh	MT1-MMP act inh RFP	Rce1 inhib
CC1CCN(CCOCCOc2ccccc2-c2ccccc2)CC1	12	-3	61	30	.	5	8	i
COC(=O)c1nn(-c2ccccc2)c(Sc2ccccc2)c1/C=N/O	6	-3	-2	.	-6	-3	-5	i
CCOC(=O)C1(Cc2cccc(F)c2)CCN(C(=O)c2ccoc2C)CC1	-2	-3	-12	8	.	-3	4	i
Cn1c(=O)oc2cc(S(=O)(=O)N3CCc4ccccc43)ccc21	-9	-10	11	7	-19	-5	-13	i
COc1ccc(-c2cccc(NC(=O)c3ccc4c(c3)OCO4)c2)nn1	.	.	-9	-8	6	4	2	i
COc1cccc(Nc2nc(C(C)N)cs2)n1 (stereo not given)	.	.	.	1	-25	-2	4	.
Cc1c(Cl)cccc1NC(=S)NC1CCN(C(C)C)CC1	-3	2	.	-6	.	6	5	i
O=C(CN(C(=O)Cn1nnc(-c2ccccc2F)n1)c1cnc2ccccc2c1)NCC1CCCO1 (stereo not given)	2	12	-15	-6	.	-2	2	i
COc1ccc(CCNC(=O)CCC(=O)n2ncc3ccc(Cl)cc32)cc1OC	-10	-2	9	5	-13	-1	4	i
CCn1nc(NC(=O)c2ccncc2)c2cc3ccccc3nc21	-11	-4	-15	.	-13	-1	3	i

Fetched by structure from the list above, 5 records:
SMILES	eIF4H inh	PABP polyA inh	CSC inhib	Env fusion inh	UUG fidelity	MT1-MMP act inh	MT1-MMP act inh RFP	Rce1 inhib
CCOC(=O)C1(Cc2cccc(F)c2)CCN(C(=O)c2ccoc2C)CC1	-2	-3	-12	8	.	-3	4	i
CCn1nc(NC(=O)c2ccncc2)c2cc3ccccc3nc21	-11	-4	-15	.	-13	-1	3	i
Cc1c(Cl)cccc1NC(=S)NC1CCN(C(C)C)CC1	-3	2	.	-6	.	6	5	i
Cn1c(=O)oc2cc(S(=O)(=O)N3CCc4ccccc43)ccc21	-9	-10	11	7	-19	-5	-13	i
COc1cccc(Nc2nc(C(C)N)cs2)n1 (stereo not given)	.	.	.	1	-25	-2	4	.

(next part)
SMILES	eIF4H inh	PABP polyA inh	CSC inhib	Env fusion inh	UUG fidelity	MT1-MMP act inh	MT1-MMP act inh RFP	Rce1 inhib
C=CC[C@H](CC(=O)NCCO)C(=O)NC[C@@H](OC(=O)[C@H](CC=C)CC(=O)OC(C)(C)C)c1ccccc1	.	.	.	6	-11	0	4	.
COC(=O)c1ccc(N2C(=O)c3cc(N4CCOCC4)c([N+](=O)[O-])cc3C2=O)cc1	3	10	-14	3	-11	4	5	i
CCOc1ccc(C(=O)Nc2cccc3ncccc23)cc1Br	4	0	-2	5	-4	0	-9	i
CC(C)N1CCC(N2CCN(CCCc3ccccc3)CC2CCO)CC1 (stereo not given)	-4	3	-1	-18	-6	-4	3	i
N#CC1=C(Nc2ccccc2Cl)SC(c2ccccc2O)NC1=O (stereo not given)	9	13	0	-17	-14	-1	7	i
Cn1c(=O)[nH]c(=O)c2c1nc(N/N=C/C(Br)=C/c1ccccc1)n2CCO	9	-2	37	-2	-11	5	4	.
O=C(Nc1ccc(F)cc1)C(c1ccccc1)N1CCN(CC(=O)N2CCCC2)CC1 (stereo not given)	.	.	.	-1	-16	-5	-1	.
CN(c1ccccc1C(=O)O)S(=O)(=O)c1ccc2[nH]c(=O)[nH]c2c1	10	5	-9	-10	-6	-1	-1	i
COC(=O)c1cc(-c2ccc(NC(C)=O)cc2)nc2ccccc12	-1	0	.	12	.	1	2	i
Cc1ccc2oc(=O)n(CCOc3ccccc3C)c2c1	-10	-4	9	7	4	-6	-6	i
COC(=O)c1ccccc1N1C(=O)[C@@H]2C(c3ccc(Br)cc3)=NO[C@@H]2C1=O	-11	-5	-8	.	2	-1	2	i
Cc1ccc(CNC(=O)CCSCc2cccc(F)c2)cc1	-3	-7	-2	5	-14	-2	-1	i
COc1cccc(-c2ccc3ncnc(NCc4cccnc4)c3c2)c1	.	.	.	45	-20	-6	-8	.
CNC(=O)CCN(Cc1ccco1)S(=O)(=O)c1ccc(OC)c(OC)c1	-1	1	-11	-7	.	3	5	i
N#C/C(=C/c1ccc(Br)o1)C(N)=S	7	5	40	.	.	.	.	i
Cc1onc(-c2ccccc2Cl)c1C(=O)NCc1nnnn1-c1ccc(F)c(F)c1	.	.	.	25	-8	-6	-1	.
CC(C)(C)OC(=O)N1CCN(C(=O)c2[nH]c(C(F)(F)F)nc2-c2ccccc2)CC1	.	.	.	-35	-11	4	1	.
CCOC(=O)N1CCN(C(=O)C(NC(=O)c2ccco2)C(C)C)CC1 (stereo not given)	-2	-2	14	6	-1	2	5	i
CCOC(=O)c1cc(C)[nH]c(=O)c1C#N	-5	7	2	9	6	0	3	+
O=C1NC(c2cccc([N+](=O)[O-])c2)Oc2ccccc21 (stereo not given)	1	3	1	-16	.	3	-4	i
CCSc1nnc(NC(=O)C(C)C)s1	-8	5	-11	-33	-5	1	2	i
CCOc1ncccc1C(=O)OCC(=O)Nc1cc(S(=O)(=O)N(CC)CC)ccc1C	-4	20	-4	14	.	4	2	i
CCCN(CCC)CCCNC(=O)c1cn(C)c2ccc(S(=O)(=O)N(C)C3CCCCC3)cc2c1=O	2	-1	5	-2	-2	-2	1	i
